Compound activity (PubChem BioAssay)
2A StopGo = lowers the luciferase signal of an FMDV 2A StopGo reporter; 410,000 compounds, 1.2% hits; Potency, µM (top dose mostly 57.9 µM), inactives show top-dose signal change, negative = less light; human cells with a luciferase reporter of 2A StopGo recoding; control for the full effect not named in the record; active = well fitted falling curve with a large enough effect; inconclusive = small, poorly fitted or top-dose-only effect; inactive = no such curve, though single readings can be large or run the other way; tested in HEK293T cells; also: % is scaled to controls: 0 for no effect and ±100 for the full control effect; nearly all actives have a fitted effect of over 45% in size; luciferase light after 4 h
Marburg entry inh = inhibitors of Marburg virus binding or cell entry | AID 540276 | Potency, µM (series often up to 37.8 µM), for the others: top-dose activity change, negative = inhibition, actives largely listed as inhibitors | 300,000 compounds, 1.8% hits | Marburg virus pseudotyped entry inhibition, cell reporter; control for the full effect not named in the record; about a third of the inactives were read at about 46 µM; active = well fitted inhibition curve with a large enough effect; inconclusive = small, poorly fitted or top-dose-only effect, or effect the other way; inactive = flat fitted curve, though single readings scatter; tested in HEK293 cells; about a fifth of its hits are not listed in these tables; also: % is scaled to controls: 0 for no effect and ±100 for the full control effect; luciferase read-out
NS1 function inh = blocks influenza NS1 protein function; S. cerevisiae slowed by influenza A NS1, growth recovery by OD600; Potency, µM (top dose mostly 46.1 µM), for the others: top-dose activity, positive = more growth; 270,000 compounds, 0.4% hits; AID 2326; active means well fitted rising curve with a large enough effect; inconclusive means small, poorly fitted or top-dose-only effect; inactive means no such curve, though single readings can be large or run the other way; also: nearly all actives have a fitted effect of over 50% in size
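Compounds were scored for reversing the slow growth caused by influenza A NS1 in S. cerevisiae, measured by optical density at 600 nm. Assay medium contained 2% galactose at pH 6.0; NS1-free yeast of the same strain were the positive control.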
Cruzain noTriton = inhibitors of Trypanosoma cruzi cruzain without detergent. P25779. purified cruzain, Z-FR-AMC fluorescence, no detergent. Potency, µM, for inactives: max response, negative = inhibition, most hits filed as inhibitors. 200,000 compounds, 2.3% hits;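 also: plate controls were enzyme without inhibitor for no effect and buffer without enzyme for full effect; nearly all actives have a fitted effect of over 40% in size; top concentration of the series not given in the record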
Target sequence (P25779 123-467 limits assumed): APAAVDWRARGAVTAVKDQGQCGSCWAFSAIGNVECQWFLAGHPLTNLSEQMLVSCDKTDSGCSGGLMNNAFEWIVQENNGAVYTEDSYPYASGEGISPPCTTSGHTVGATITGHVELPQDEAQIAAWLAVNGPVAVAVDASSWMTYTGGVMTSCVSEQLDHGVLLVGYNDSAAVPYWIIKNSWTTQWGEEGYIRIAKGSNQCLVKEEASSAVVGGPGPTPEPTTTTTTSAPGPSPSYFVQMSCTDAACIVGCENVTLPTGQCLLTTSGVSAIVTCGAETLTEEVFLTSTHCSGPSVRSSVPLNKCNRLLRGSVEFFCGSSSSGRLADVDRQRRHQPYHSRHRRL
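Detergent-free condition (0.00005% Triton X-100) in acetate buffer pH 5.5 with DTT. 1.5 nM enzyme and compound were pre-mixed 15 min, then 2 uM Z-FR-AMC substrate added; reaction progress from fluorescence change between first and third reads (60 s).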
Cruzain inh Det = blocks cruzain activity in presence of Triton detergent; purified cruzain, Z-FR-AMC fluorescence, 0.01% Triton; Potency, µM, for the others: max response, negative = inhibition, actives largely listed as inhibitors; 200,000 compounds, 0.43% hits; P25779;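 also: plate controls were neutral wells for no effect and buffer without enzyme for full effect; nearly all actives have a fitted effect of over 40% in size; top concentration of the series not given in the record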
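Detergent-containing run (0.01% Triton X-100) in acetate buffer pH 5.5 with 5 mM DTT: enzyme at 1.5 nM final, 15 min compound preincubation at room temperature, then 2 uM Z-FR-AMC substrate. Activity taken as 60 s fluorescence increase at 360/450 nm.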
LASV entry inh = Lassa virus entry inhibition; Lassa virus pseudotype entry inhibition, cell reporter; control for the full effect not named in the record; Potency, µM (top dose mostly 37.9 µM), inactives show at the top dose activity change, negative = inhibition, most hits filed as inhibitors; 300,000 compounds, 1.2% hits; active means well fitted inhibition curve with a large enough effect; inconclusive means small, poorly fitted or top-dose-only effect, or effect the other way; inactive means flat fitted curve, though single readings scatter; tested in HEK293 cells; also: % is scaled to controls: 0 for no effect and ±100 for the full control effect; nearly all actives have a fitted effect of over 50% in size; luciferase read-out
RE007 growth inh = less growth of the S. pombe RE007 Vpr strain. Potency, µM (doses to about 92.2 µM), without a hit: at the highest dose activity change, negative = less growth. S. pombe RE007 Vpr strain, BacTiter-Glo ATP luminescence, 24 h; control for the full effect not named in the record. AID 651644. 360,000 compounds, 0.21% hits; active = well fitted falling curve with a large enough effect; inconclusive = small, poorly fitted or top-dose-only effect; inactive = no such curve, though single readings can be large or run the other way;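 also: % is scaled to controls: 0 for no effect and ±100 for the full control effect; nearly all actives have a fitted effect of over 50% in size; the assay follows cell death caused by Vpr and the record does not say whether a fall means rescue or toxicity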
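Fission yeast RE007 carrying one integrated HIV-1 vpr copy, seeded at OD 0.01 in PMG+AL medium with 23 nL pinned compound. Grown 24 h at 30 degrees; viability read by BacTiter-Glo luminescence after 5 min.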
SARS PLpro yeast = SARS-CoV PLP inhibition in yeast; S. cerevisiae expressing SARS-CoV PLpro, growth rescue; control for the full effect not named in the record; Potency, µM (series often up to 32.9 µM), for the others: top-dose activity, positive = growth rescue; 330,000 compounds, 0.19% hits; active means well fitted rising curve with a large enough effect; inconclusive means small, poorly fitted or top-dose-only effect; inactive means no such curve, though single readings can be large or run the other way; also: 0% is about no effect; nearly all actives have a fitted effect of over 55% in size; growth read by luminescence after 48 h
Active calls of the source: *; ? = inconclusive; . = no result given; & = joins results of further samples; [ ] = another dose, or the depositor's remark. Unless noted, calls follow the shape of the dose curve; as a rule, active = well fitted curve in the direction sought with a large enough effect; inconclusive = small, poorly fitted or top-dose-only effect, or another doubt; inactive = no such curve, though single readings can be large; an effect the other way counts as inactive or inconclusive. Potency is read from the fitted curve at half-maximal effect.

SMILES	2A StopGo	Marburg entry inh	NS1 function inh	Cruzain noTriton	Cruzain inh Det	LASV entry inh	RE007 growth inh	SARS PLpro yeast
Cc1ccc(C(=O)N2CCOCC2)cc1S(=O)(=O)Nc1cccc(C)c1C	28%	16%	0%	14%	-2.0%	1%	4%	18%
COc1cccc(CN(C)Cc2nc(C3CC3)no2)c1	1%	.	-4%	.	.	.	16%	0%
Cc1c(NC(=S)SCc2ccccc2)c(=O)n(-c2ccccc2)n1C	-27%	-14%[46.1 µM]	.	.	.	-20%[46.1 µM]	53%	3%
Cc1ccc(NC(=O)C2OCCc3ccccc32)cc1Cl (stereo not drawn)	0%	.	-7%	.	.	.	-43%	-3%
Cc1ccc2oc(C(=O)N3CCN(c4cccc(C)n4)CC3)c(C)c2c1	40%[activator]	1%	-36%	.	.	?	-24%	-3%
Fc1ccccc1NC(=S)NCCc1ccccc1	20%	?	-18%	3%	3.4%	12%	?	7%
CCc1ccc(/C=N\n2cnnc2)cc1	12%	?	-5%	.	.	8%[46.1 µM]	3%	-2%
Cc1c(C(=O)NCc2ccccn2)oc2ccc(Br)cc12	36%[activator]	21%	.	.	.	20%	-21%	6%
Cc1ccc2[nH]c(-c3cccc(N)c3)cc2c1	73%[activator]	?	4%	13%	-10%	-1%	-18%	-1%
CCOCCCNS(=O)(=O)c1ccc(-n2cnnn2)c(OC)c1	.	18%	-2%	0%	2.4%	3%	11%	3%
CCCCN(C(=O)Cc1ccc(S(=O)(=O)N2CCOCC2)s1)c1c(N)n(CCCC)c(=O)[nH]c1=O	-22%	26%	.	.	.	7%	?	-5%
CSc1nnc([C@@H](N)Cc2ccccc2)o1	6%	15%	-8%	6%	-2.3%	6%	22%	-5%
CCn1c(SCC(=O)N2CCC(C(N)=O)(N3CCCCC3)CC2)nnc1-c1ccccc1	-27%	7%&7%	?	-10%	-3.9%	3%	10%	10%
COc1ccc(C(=O)C2CCCN(Cc3ccc4nonc4c3)C2)cc1F (stereo not drawn)	-20%	-26%[46.1 µM]	-5%	.	.	?	2%	0%
O=C(NCCc1ccccc1)C1CCC(CNc2c(N3CCCCC3)c(=O)c2=O)CC1 (stereo not drawn)	-13%	7%	-1%	-7%	0.6%	-1%	8%	3%
O=C1CC(Nc2ccc(N3CCOCC3)cc2)C(=O)N1C1CCCCC1 (stereo not drawn)	-12%	22%&22%	9%	-7%	0.6%	-13%	-14%	-5%
COc1ccc(CC(=O)NCc2nnc(SCc3ccc([N+](=O)[O-])cc3)n2C)cc1	-22%	-12%[46.1 µM]	1%	.	.	3%[46.1 µM]	8%	1%
CC1CN(C(=O)CCC(=O)NCc2ccc(Cl)cc2)c2ccccc2S1 (stereo not drawn)	-15%	.	-19%	.	.	.	-4%	-8%
Cc1ccccc1NC(=O)c1ccccc1NS(=O)(=O)c1cccc2cccnc12	-4%	2%	?	-30%	4.2%	-5%	-1%	-1%
O=C(C(=O)c1ccc(O)c(O)c1)c1ccc(O)c(O)c1	-5%	25%	.	.	.	12%[46.1 µM]	-19%	.
CN(CC(=O)NCc1ccccn1)S(=O)(=O)c1ccc(Br)cc1	-6%	-11%	3%	.	.	1%	2%	-1%
COc1ccc(-c2cnn3c4c(c(C)nc23)CCN4C(C)C)cc1OC	61%[activator]	1%	3%	-3%	-1.7%	0%	-10%	-2%
CCn1c(SCC(=O)NC2CCCC2)nnc1-c1cccnc1	-8%	-5%[46.1 µM]	7%	.	.	4%[46.1 µM]	2%	-1%
COc1ccc(OC)c(Nc2nc(-c3ccccc3O)nc3ccccc23)c1	-11%	-1%[46.1 µM]	-3%	.	.	-3%	-14%	0%
c1ccc(-n2nnnc2SCc2cccc3nsnc23)cc1	-15%	-28%	-17%	-7%	-1.1%	?	7%	?
(continued)
SMILES	2A StopGo	Marburg entry inh	NS1 function inh	Cruzain noTriton	Cruzain inh Det	LASV entry inh	RE007 growth inh	SARS PLpro yeast
COc1cc(NC(=O)CCNC(=O)Cn2cnc3sc4c(c3c2=O)CCCC4)cc(OC)c1OC	14%	19%[46.1 µM]	4%	.	.	15%	7%	16%
CCOc1ccc(-n2c(=O)[nH]cc(C(=O)N3CCCc4ccccc43)c2=O)cc1	-6%	-6%[46.1 µM]	-7%	-5%	3.9%	19%	-1%	0%
CCCCC(=O)Nc1ccc(NC(=O)c2cc(OC)c(OC)c(OC)c2)cn1	-20%	-25%	1%	14%	4.5%	2%	2%	-5%
C/C(=N\Nc1ccc(C(F)(F)F)cc1[N+](=O)[O-])C(C)C	10%	-6%	-10%	-5%	-5.4%	-1%	1%	-13%
Cc1ccccc1N(C(=O)CCC(=O)Nc1ccccn1)C(C(=O)NC(C)C)c1ccc(O)cc1 (stereo not drawn)	0%	7.1µM*	-3%	5%	4.2%	-3%	0%	-5%
O=C(/C=C/c1ccco1)Nc1ccc(-c2nc3ccccc3[nH]2)cc1	-7%	?	15%	-18%	?	-12%	22%	8%
Cc1ccc(SCC(=O)N2CCC(C(N)=O)CC2)cc1	2%	9%[46.1 µM]	.	.	.	-5%	1%	-5%
COc1ccccc1-n1c(=O)[nH]c2c(C(N)=O)nc(C3CCCCC3)nc21	-21%	.	20%	3%	-3.4%	.	-2%	-4%
CN1CCN(c2nc(NCCOC34CC5CC(CC(C5)C3)C4)nc(OCC(F)(F)F)n2)CC1	?	18%	-6%	13%	4.8%	-12%	-18%	4%
NC1=NC(=O)C2(COC(c3cccnc3)OC2)S1 (stereo not drawn)	-9%	-3%[46.1 µM]	.	.	.	14%	6%	-3%
CCc1ccc(N2CC(C(=O)N3CCCC3)CC2=O)cc1 (stereo not drawn)	25%	10%[46.1 µM]	2%	.	.	-2%	3%	-5%
Cc1cccc(CN2CCOCCS2(=O)=O)c1	-9%	.	21%	.	.	.	-3%	11%
NS(=O)(=O)c1cccc(NC(=O)COC(=O)C2(c3cccc(F)c3)CCCC2)c1	-8%	2%	1%	-2%	-7.0%	-6%	2%	26%
CCc1nn(CC(=O)N(C)C2CCCCC2)c(=O)c2cc3cc(C)ccc3n12	-15%	.	1%	.	.	.	-4%	4%
COc1ccc(Cn2c(C3CC3)nc3ccc(NC(=O)C4CC4)cc3c2=O)cc1	7%	?	-31%	8%	-2.9%	?	24%	0%
COc1cccc(N2CCN(C3C(=O)c4ccccc4N3C(C)=O)CC2)c1 (stereo not drawn)	-10%	.	.	-11%	-3.0%	7%[46.1 µM]	.	.
CCOC(=O)N1CCN(S(=O)(=O)c2ccc(C)cc2)C1c1ccc(OC)cc1 (stereo not drawn)	-8%	?	-8%	27%	-12%	23µM*	0%	4%
CCCCSc1nc2c(=O)[nH][nH]c(=O)c2n1Cc1ccccc1	5%	8%	9%	-10%	-1.5%	-7%	2%	7%
COc1cc(OC)c(C2C(C(=O)O)c3ccccc3C(=O)N2C)cc1OC (stereo not drawn)	-4%	-19%[46.1 µM]	7%	-2%	0.4%	5%	0%	3%
COc1ccc(N2CCC(CNC(=O)Nc3ccc(C)c(C)c3)C2)cc1 (stereo not drawn)	-2%	-22%	?	-26%	-1.6%	1%	-12%	7%
O=C(CCCOc1ccc(Cl)cc1Cl)N1CCC2(CC1)OCCO2	39%[activator]	15%	-6%	?	2.6%	14%	-6%	-2%
CCN(CC(=O)Nc1ccc2c(c1)OCCO2)C(=O)c1cccc(OCC(C)C)c1	1%	29%	-13%	.	.	-20%	?	2%
Cc1cc(C(=O)COc2cccnc2[N+](=O)[O-])c(C)n1-c1ccccc1	-7%	?	8%	-16%	-1.7%	4.6µM*	3%	13%
O=C(c1ccc(Cl)cc1)N(Cc1ccc(Br)cc1)N1C(=O)CCC1=O	-20%	10%[46.1 µM]	-34%	.	.	19%	9%	-1%
COc1ccc(C(=O)NCC(c2ccco2)N2CCOCC2)cc1OC (stereo not drawn)	-4%	?	.	.	.	1%	-9%	0%

Entries of single compounds as entered above. Screens in order: 2A StopGo, Marburg entry inh, NS1 function inh, Cruzain noTriton, Cruzain inh Det, LASV entry inh, RE007 growth inh, SARS PLpro yeast
CCN(CC(=O)Nc1ccc2c(c1)OCCO2)C(=O)c1cccc(OCC(C)C)c1 in the list: 1%, 29%, -13%, ., ., -20%, ?, 2%
O=C(CCCOc1ccc(Cl)cc1Cl)N1CCC2(CC1)OCCO2 in the list: 39%[activator], 15%, -6%, ?, 2.6%, 14%, -6%, -2%
COc1ccccc1-n1c(=O)[nH]c2c(C(N)=O)nc(C3CCCCC3)nc21 in the list: -21%, ., 20%, 3%, -3.4%, ., -2%, -4%

Later entries:
SMILES	2A StopGo	Marburg entry inh	NS1 function inh	Cruzain noTriton	Cruzain inh Det	LASV entry inh	RE007 growth inh	SARS PLpro yeast
COc1cccc(N2CCN(C(=O)C3CCCN(c4ncnc5c4nc4n5CCCCC4)C3)CC2)c1 (stereo not drawn)	?	.	-24%	.	.	.	4%	-23%
Cc1cc(NCc2ccccc2)nc(N2CCOCC2)n1	-14%	5%	-9%	-6%	3.2%	4%	3%	1%
Cc1nn(Cc2ccccc2)c(C)c1NC(=O)c1cccs1	-8%	-5%	7%	9%	-2.1%	-22%	33%	10%
N=C(c1cccc([N+](=O)[O-])c1)N1CCCCC1	23%	11%[46.1 µM]	1%	.	.	1%[46.1 µM]	5%	-2%
COc1ccc(NC(=O)CN(C)CC(=O)Nc2sc3c(c2C(N)=O)CCC3)cc1	-10%	?	.	.	.	-3%	-3%	-4%
Nc1nc(N)c(-c2cccc(C(F)(F)F)c2)c(Cc2cccc(C(F)(F)F)c2)n1	-29%	?	3%	2%	-0.2%	?	12%	.
COC(=O)C1C(O)=C(C=Nc2cccc3ccccc23)C(=O)CC1(C)C (stereo not drawn)	-17%	-1%	-4%	.	.	-12%	?	0%
Cc1nn(-c2ccccc2)c(=S)n1-c1ccccc1	-6%	11%[46.1 µM]	0%	3%	-0.6%	-1%	-1%	5%
Cc1ccc(Cc2cnc(NC(=O)c3ccco3)s2)cc1	.	?	-49%	-9%	-0.8%	?	?	-18%
Cc1cnc(C)c(N2CCC(C(=O)NC(C)c3cccs3)CC2)n1 (stereo not drawn)	-17%	?	-51%	0%	5.3%	-28%	8%	-4%
